TRPML1 ag – qHTS for Agonists of the Human Mucolipin Transient Receptor Potential 1 (TRPML1); Mucolipin-1 (Homo sapiens), Q9GZU1; TRPML1-expressing cells, Ca2+ dye fluorescence, FDSS; host cell line not named in the record; reference of the full effect not given here; activation, % (no concentration beside the values); 0.12% of 410,000 active; AID 624414, 2012; in the data active = activation above about 50%; inconclusive = about 30% to 50%; inactive = below about 30%; note: 0% is about no effect; the text of the record puts the active cut at 80%
Target sequence (Q9GZU1 whole entry, looked up): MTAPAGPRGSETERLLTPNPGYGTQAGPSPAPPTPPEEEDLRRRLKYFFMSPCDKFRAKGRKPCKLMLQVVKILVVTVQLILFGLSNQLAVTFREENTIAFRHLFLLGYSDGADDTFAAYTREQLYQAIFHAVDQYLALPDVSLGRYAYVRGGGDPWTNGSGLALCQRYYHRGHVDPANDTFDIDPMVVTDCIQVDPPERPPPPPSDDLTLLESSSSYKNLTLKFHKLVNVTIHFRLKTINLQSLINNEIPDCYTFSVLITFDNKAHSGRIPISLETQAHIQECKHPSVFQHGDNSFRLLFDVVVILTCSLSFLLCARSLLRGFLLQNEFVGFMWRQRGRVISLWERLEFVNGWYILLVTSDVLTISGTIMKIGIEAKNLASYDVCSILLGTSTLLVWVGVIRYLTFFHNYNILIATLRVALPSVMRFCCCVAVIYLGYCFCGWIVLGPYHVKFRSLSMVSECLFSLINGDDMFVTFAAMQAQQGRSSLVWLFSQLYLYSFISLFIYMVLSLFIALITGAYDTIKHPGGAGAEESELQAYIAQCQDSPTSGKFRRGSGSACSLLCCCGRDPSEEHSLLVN
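Tet-induced TRPML1-DL cells, 1,500 per well, cultured overnight, were loaded with a no-wash Ca2+ dye for 45–90 min. Calcium fluorescence was recorded on the FDSS for 110 s after compound addition, before the EC80 agonist (4 uM 54-4) was added.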
D2 agonist – Beta-Arrestin HTS for Positive Allosteric Modulators of the Human D2 Dopamine Receptor: Agonists. D(2) dopamine receptor (Homo sapiens), P14416. DiscoveRx PathHunter D2 beta-arrestin, luminescence, 90 min; 100% = 57 uM dopamine signal. activation, % (concentration not given with the values). 0.084% of 360,000 active. AID 624465, 2012; in the data active = activation above about 40%; inconclusive = about 15% to 40%; inactive = below about 15%; note: compound concentration not given in the record; the text of the record calls up to 30% inactive
Target sequence (P14416 whole entry, looked up): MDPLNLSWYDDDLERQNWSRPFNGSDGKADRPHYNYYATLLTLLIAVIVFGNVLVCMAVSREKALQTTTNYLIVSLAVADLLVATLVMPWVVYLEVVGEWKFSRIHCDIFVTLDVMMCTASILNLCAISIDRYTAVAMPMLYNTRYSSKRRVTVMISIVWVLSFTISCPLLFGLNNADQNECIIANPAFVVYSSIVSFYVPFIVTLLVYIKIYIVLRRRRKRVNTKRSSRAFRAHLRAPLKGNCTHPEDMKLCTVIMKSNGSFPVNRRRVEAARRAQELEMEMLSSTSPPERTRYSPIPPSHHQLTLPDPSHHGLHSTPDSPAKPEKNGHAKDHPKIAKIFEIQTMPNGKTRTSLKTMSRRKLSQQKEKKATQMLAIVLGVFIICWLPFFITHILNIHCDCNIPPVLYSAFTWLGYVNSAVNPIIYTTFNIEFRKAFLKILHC
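Agonist mode: compounds alone added to overnight-plated D2 PathHunter cells for 90 min at 37 C, with 57 uM final dopamine (EC100) defining full response. Beta-arrestin recruitment detected by chemiluminescent reagent, read after 1 h at ambient temperature.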
TRPML1 inh – qHTS for Inhibitors of the Human Mucolipin Transient Receptor Potential 1 (TRPML1) | Mucolipin-1 (Homo sapiens), Q9GZU1 | TRPML1-inducible cells, Ca2+ dye fluorescence, FDSS; hits give low values; inhibition of EC80 agonist-evoked calcium signal | activity change, negative = inhibition, % (no concentration beside the values) | 0.02% of 390,000 active | AID 624415, 2012; in the data active means activity change below about -50%; inconclusive means about -30% to -50%; inactive means above about -30%;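 note: stimulus is agonist 54-4 at its EC80 concentration; % is set by controls: 0 for no effect and ±100 for the full control effect; compound concentration not given in the record; the text of the record puts the active cut at -80%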
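Tet-induced TRPML1-DL cells loaded with Ca8 no-wash calcium dye were read kinetically on FDSS. Compound addition was followed by EC80 agonist 54-4 (4 uM final); inhibition was read over 110 s.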
Six1-Eya2 inh – qHTS Assay for Inhibitors of the Six1/Eya2 Interaction. Homeobox protein SIX1 (Homo sapiens) + Protein phosphatase EYA2 (Homo sapiens), …. AlphaScreen GST-Six1/His-Eya2 binding, biochemical; hits give low values; control for the full effect not named in the record. activity change, % (no concentration beside the values). 0.56% of 360,000 active; in the data active = activity change below about -65%; inconclusive = about -30% to -65%; inactive = above about -30%; note: % is set by controls: 0 for no effect and ±100 for the full control effect; compound concentration not given in the record
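AlphaScreen with GST-Six1 and His-Eya2 (5X mix: 250 nM and 500 nM), glutathione donor and nickel acceptor beads; buffer 50 mM Tris pH 8.0, 300 mM NaCl, 1 mM TCEP; 1 h at 37 C in the dark.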
CtBP-E1A blk – qHTS Assay for Inhibitors of the CtBP/E1A Interaction | CtBP / adenovirus E1A interaction (AlphaScreen) | activity change, % (test concentration not listed) | 0.49% of 340,000 active | AID 651724, 2012 | AlphaScreen GST-E1A/His-CtBP binding, 1536-well; hits give low values; control for the full effect not named in the record; in the data active means activity change below about -65%; inconclusive means about -30% to -65%; inactive means above about -30%; note: % is set by controls: 0 for no effect and ±100 for the full control effect; compound concentration not given in the record
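GST-E1A and His-tagged CtBP (125 nM each as 5X stock) were preincubated with pin-transferred compound for 2 h at 37 °C in the dark, then glutathione donor and nickel acceptor beads were added for 1 h before AlphaScreen reading.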
PINK1 modulator – A Quantitative High throughput Screen to Identify Chemical Modulators of PINK1 Expression. Potency, µM (titrated, usually from 76.6 µM), for the others: at the highest dose activation (PINK1 increase), usual class: activators. AID 624263, 2012. 0.2% of 410,000 active. PINK1 immunofluorescence, high-content cytometry, 24 h; active = well fitted activation curve with a large enough effect; inconclusive = small, poorly fitted or top-dose-only effect; inactive = flat fitted curve, though single readings scatter; cell line not stated here;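 note: potency is the fitted concentration of half-maximal effect; % of control where 0% means no effect; nearly all actives have a fitted effect of over 65% in size; a mitochondrial uncoupler was the plate control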
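Cells are seeded, rested 12 hours, then given compound at five concentrations or DMSO for 24 hours. After fixation, blocking and antibody staining, PINK1 amount and mitochondrial localization are scored; CCCP serves as control.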
The depositor's hits bear a star; ? = inconclusive; . = not tested or not shown; & = joins results of further samples; [ ] = another dose, or the depositor's remark.

smiles,TRPML1 ag,D2 agonist,TRPML1 inh,Six1-Eya2 inh,CtBP-E1A blk,PINK1 modulator
CCN(CC)c1ccc(NC2=C(Cl)C(=O)c3ccccc3C2=O)cc1,3.6,10.2,9.3,?,?,-5.7%
CCO[C@H]1OC(C(=O)NCc2nc3ccccc3[nH]2)=C[C@@H](C2CCCCC2)[C@@H]1CCCO,0.0,0.1,0.4,1.3,9.0,0.3%
CCOCc1[nH]c(=S)[nH]c(=O)c1Cc1ccc(OCC(C)C)cc1,-1.0,-5.4,0.5,-1.5,-1.1,4.0%
COc1ccc(-c2cc(C(=O)Oc3cccc(C)c3C)c3ccccc3n2)cc1,-0.1,.,3.1,.,.,2.0%
O=C1NC[C@H](c2ccccc2)OC(=O)[C@H](Cc2ccc(F)cc2)CC/C=C/C[C@@H]1CC(=O)N(CCO)Cc1ccccc1,-0.4,3.1,20.8,-4.9,0.8,-0.8%
COc1cc(/C=C/C(=O)OCC(=O)NCc2cccs2)ccc1OC(F)F,0.0,-0.9,2.4,4.3,-5.5,-0.1%
CC(C)(C)NC(=O)NC(=O)COC(=O)Cc1ccc(Cl)cc1Cl,3.1,0.9,20.2,7.9,-0.8,2.6%
C[n+]1ccccc1N1CCN(c2ccccc2Cl)CC1,-0.3,-6.6,-1.8,9.4,-1.0,0.3%
CCn1cc(Br)c(C(=O)NN)n1,1.4,-1.0,14.2,-1.4,-0.3,0.7%
O=C(Cn1cnc2scc(-c3ccc(F)cc3)c2c1=O)NCC(c1ccco1)N1CCCC1 (stereo not given),-0.5,-6.0,11.9,-4.9,-9.6,0.2%
Cc1ccc(NC(=O)CCC(=O)OC(C(=O)c2ccc(C)c(C)c2)c2ccccc2)c(C)c1 (stereo not given),2.4,-3.5,-2.3,-0.5,-5.4,1.7%
CC(C)c1nnc(NC(=O)COc2ccc3c(c2)OCO3)s1,3.7,-4.4,33.9,-6.7,-0.3,0.6%
CC1(C)CC(=O)C=C(c2ccc(Cl)c(C(F)(F)F)c2)C1,0.4,-0.1,-4.9,-9.7,5.7,16.3%
CCOC(=O)c1c(-c2ccc(Br)cc2)csc1NC(=O)c1ccc(C(C)(C)C)cc1,0.1,.,-27.1,.,.,-0.2%
Cc1cccc(NC(=O)CN(C)S(=O)(=O)c2ccc(-c3ccc(=O)[nH]n3)s2)c1C,2.2,0.5,-11.5,-8.5,-11.9,?
COc1cc(O)c(C(CC(=O)N2CCCCC2)c2cc(OC)c(OC)c(OC)c2)c(OC)c1 (stereo not given),0.8&-0.1,-2.2,7.0&-6.2,1.8,0.0,1.7%
Cc1ccccc1C(=O)Nc1ccc2c(c1)CCCN2C(=O)c1cccs1,2.6&3.3,1.3,31.3&-12.5,-5.0,.,0.5%&-0.2%
O=C(N/N=C/c1ccco1)c1cccc([N+](=O)[O-])c1,0.6,0.9,0.6,-0.9,-7.8,-1.6%
CCCc1nnc(NC(=O)CCC(=O)Nc2ccc(Br)cc2)s1,0.5,-2.1,31.8,3.2,.,1.8%
COc1cccc(NC(=O)CCN2CCN(c3ccccc3F)CC2)c1,-1.3,?,-1.9,8.1,1.1,-2.0%
Cc1nc(N2CCOCC2)nc2c1CCCC2,0.2,0.6,-1.6,11.3,4.2,-1.3%
C=CCn1c(=S)[nH]c2cc(C(=O)Nc3ccc(F)cc3)ccc2c1=O,0.2,8.2,-2.1,4.7,23.0,16.7%
Cc1onc(-c2c(Cl)cccc2Cl)c1C(=O)Nc1ccc2c(c1)OCO2,0.3,0.5,-9.7,-3.7,4.9,-1.6%[38.3 µM]
Cc1nc(-c2cccc(Br)c2)ccc1C(=O)O,0.1,2.2,3.1,0.4,-3.9,-0.6%
COc1ccc(NC(=O)Nc2ccc(OCC(=O)N3CCOCC3)cc2)cc1OC,0.2,-0.7,2.5,0.6,7.5,.
CS(=O)(=O)Nc1ccc(C(=O)NC2CCCCC2)cc1,-0.1,-15.5,-0.6,2.2,-24.6,0.6%
CC1(C)CC(=O)C2=C(C1)N=c1s/c(=C/c3ccc(F)c(F)c3)c(=O)n1C2c1ccc(F)cc1 (stereo not given),0.9,-1.5,7.8,-9.7,-0.9,12.4%
CC1(C)CC(NC(=O)c2ccc(Br)o2)CC(C)(C)N1,0.6,-1.2,0.2,-1.4,-22.3,2.7%
O=C(O)c1ccc(CNC(=O)c2ccccc2NC(=O)c2cccc([N+](=O)[O-])c2)cc1,-0.5,-3.1,-12.4,3.5,-11.8,2.3%
O=C(O)Cc1ccc(Oc2ncc(C(F)(F)F)cc2Cl)cc1,-0.7,2.8,9.7,1.9,.,5.0%

An excerpt from above in order of their number in CtBP-E1A blk, high to low:
SMILES	D2 agonist	TRPML1 inh	Six1-Eya2 inh	CtBP-E1A blk
O=C1NC[C@H](c2ccccc2)OC(=O)[C@H](Cc2ccc(F)cc2)CC/C=C/C[C@@H]1CC(=O)N(CCO)Cc1ccccc1	3.1	20.8	-4.9	0.8
CC(C)(C)NC(=O)NC(=O)COC(=O)Cc1ccc(Cl)cc1Cl	0.9	20.2	7.9	-0.8
C[n+]1ccccc1N1CCN(c2ccccc2Cl)CC1	-6.6	-1.8	9.4	-1.0

Continued.
smiles,TRPML1 ag,D2 agonist,TRPML1 inh,Six1-Eya2 inh,CtBP-E1A blk,PINK1 modulator
CC(=O)n1cc([C@@H]2C=C(C(=O)N3CCN(C)CC3)O[C@H](OCc3ccc(CO)cc3)C2)c2ccccc21,-0.4,6.8,8.3,-1.7,1.7,0.8%
CC(C)(C)NC(=O)Cn1c(=O)c(=O)n(Cc2ccccc2)c2ccc(Cl)cc21,1.2,-1.5,-12.3,-0.1,2.2,0.4%
Cc1cccc(C)c1-n1nnnc1C1(C)CCC(=O)N1c1ccc(N2CCOCC2)cc1 (stereo not given),-0.4,.,.,19.7,1.1,0.0%
Cc1ccc(CN2CC(C(=O)N3CCN(S(=O)(=O)c4ccc(C(C)C)cc4)CC3)CC2=O)cc1 (stereo not given),-0.4,-0.1,6.0,-5.7,-0.1,0.7%
CCN(CC)CCNC(=O)C(=O)NCC1OCCN1S(=O)(=O)c1ccc([N+](=O)[O-])cc1 (stereo not given),-0.7,8.6,-15.1,0.7,-3.4,-0.9%
O=C(N/N=C/c1ccc(OC(F)F)cc1OC(F)F)c1cccc(S(=O)(=O)N2CCOCC2)c1,1.3,-2.4,19.6,-11.0,-7.8,1.1%
CC1(C)C2CC=C(/C=N/NC(=S)NCCc3ccccc3)C1C2 (stereo not given),1.5,-5.0,0.2,0.9,-0.5,6.9%
COc1cccc(-n2c(C)nnc2SCC(=O)Nc2ccccc2N2CCOCC2)c1,-0.5,0.7,31.0,2.0,1.1,0.6%[38.3 µM]
OCCCNc1nc(-c2ccc(Cl)cc2)nnc1-c1ccc(Br)cc1,1.0,1.7,23.2,-14.2,0.8,-0.7%
CCCN(CC(=O)Nc1ccc(F)c(F)c1F)C(=O)Cn1c(=O)cnc2ccccc21,-0.8,-4.8,-6.8,2.0,-4.3,0.6%
CC(=O)c1cccc(NC(=O)C2CCN(S(=O)(=O)c3ccc4c(c3)CCCN4C(C)=O)CC2)c1,0.5,.,3.8,.,.,0.7%
CCOc1ccc(CCNCc2c(C(=O)O)c(C)n(Cc3ccccc3F)c2C)cc1,-1.2,.,4.9,.,.,-0.9%
Cc1ccc(-n2ncc3c(=O)[nH]cnc32)c(C)c1,-0.7,-2.0,-1.4,7.2,4.0,-3.8%[38.3 µM]
Cc1ccc2nc(/C(C#N)=N/O)[nH]c2c1,0.0,-1.0,-12.7,0.4,-2.8,0.2%
CCOC(=O)c1nn(-c2cccc(Cl)c2)c2nc(Nc3ccccc3)cc(=O)n12,4.8,-3.9,-3.9,?,?,15.5%
COc1ccc(NC(=O)C2CCC(=O)N2C(=O)OCc2ccccc2)cc1 (stereo not given),-0.4,-3.6,16.4,2.8,-2.4,1.5%
O=C(OCc1cccnc1)C1=Cc2ccccc2OC1,-1.0,-1.3,1.0,2.9,0.0,1.5%
CCCCc1nc2ccc(S(=O)(=O)O)cc2[nH]1,-0.2,-6.8,2.5,11.3,0.7,3.6%
O=C(Nc1ccccc1C(=O)O)c1ccc(N2C(=O)C3CC=CCC3C2=O)cc1 (stereo not given),-0.7,-1.6,12.9,2.5,6.6,3.4%
Cc1nc(-c2ccc(C(=O)Nc3ccccc3F)cc2)cs1,1.9,-6.6,0.6,19.0,-0.3,3.7%
CC(C)NC(=O)c1onc(CSc2ccc(F)cc2)c1C(=O)NC(C)C,1.3,-1.5,21.1,11.3,4.3,1.0%
CC(=O)c1c(C)n(C)c2ccc(OC(=O)c3ccco3)cc12,0.5,-1.9,-4.8,3.0,3.2,1.0%
COc1ccccc1OCCCCn1c(C(C)O)nc2ccccc21 (stereo not given),0.6,-2.9,-14.4,2.1,-5.6,0.7%
Cc1ccccc1NC(=O)Cc1nnc(SCC(=O)Nc2ccccc2)n1C,1.4,1.9,-4.4,10.8,1.4,-1.4%
Cc1ccc(C(=O)N/N=C/c2c(O)ccc3ccccc23)cn1,12.5,0.6,19.2,-73.9*,.,5.8%
c1ccc(C[C@H]2CN=C(Nc3ccccc3)N2CC2CCCCCC2)cc1,0.2,-2.7,5.4,6.2,-0.2,11.7%
COC(=O)/C(=C/c1cccnc1)NC(=O)c1ccccc1,0.5,1.0,18.4,10.5,-0.2,-0.2%
CN(C)CCNC(=O)c1ccc(Cn2c(=O)c3cccn3c3cccnc32)cc1,0.2,.,-11.1,.,.,-0.3%
Cc1cc(N2CCN(C)CC2)nc2ccc(NC(=O)Nc3ccccc3)cc12,1.4,.,24.2,.,.,7.1%
O=C(CSc1n[nH]c(-c2ccccn2)n1)Nc1ccc(Cl)cc1,1.4,-3.6,11.2,-90.8*,-92.4*,-0.3%
Cc1cnc(NC(=O)C2CCCO2)s1 (stereo not given),-0.3,-2.5,-2.2,7.6,5.2,-0.2%[38.3 µM]
CCn1c(SCC(=O)Nc2ccccc2C)nc2nc3c(cc2c1=O)COC(C)(C)C3,1.0,0.2,23.1,-3.8,.,0.7%
CCOc1ccc(NC(=O)NC2CCCc3ccccc32)cc1 (stereo not given),0.0,4.8,2.8,5.1,9.6,7.5%
COc1cc(C(=O)N2CCC(O)(c3ccccc3)CC2)cc(OC)c1OC,-0.5,-0.9,-13.8,-0.2,8.3,-3.2%

Bioassay records: PubChem BioAssay, National Center for Advancing Translational Sciences (NCATS)
